Compound activity deposited in PubChem by several laboratories.
LANA-H2B inh: blocks KSHV LANA binding to histone H2A/H2B | Q9QR71 | cell-free LANA-H2A/H2B peptide, fluorescence polarization | hit rate 0.6% among 320,000 | inhibition, % (no concentration beside the values); in the data active = inhibition mostly above about 10%, no sharp cut-off; inactive = mostly below about 6.7%;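 note: stock transfer was 7.5 nL into about 10 µL; 0% = median of vehicle wells and 100% = median of positive control wells; one replicate is shown; the record names a cut of 25% in any replicate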
Target sequence (Q9QR71 whole entry, looked up): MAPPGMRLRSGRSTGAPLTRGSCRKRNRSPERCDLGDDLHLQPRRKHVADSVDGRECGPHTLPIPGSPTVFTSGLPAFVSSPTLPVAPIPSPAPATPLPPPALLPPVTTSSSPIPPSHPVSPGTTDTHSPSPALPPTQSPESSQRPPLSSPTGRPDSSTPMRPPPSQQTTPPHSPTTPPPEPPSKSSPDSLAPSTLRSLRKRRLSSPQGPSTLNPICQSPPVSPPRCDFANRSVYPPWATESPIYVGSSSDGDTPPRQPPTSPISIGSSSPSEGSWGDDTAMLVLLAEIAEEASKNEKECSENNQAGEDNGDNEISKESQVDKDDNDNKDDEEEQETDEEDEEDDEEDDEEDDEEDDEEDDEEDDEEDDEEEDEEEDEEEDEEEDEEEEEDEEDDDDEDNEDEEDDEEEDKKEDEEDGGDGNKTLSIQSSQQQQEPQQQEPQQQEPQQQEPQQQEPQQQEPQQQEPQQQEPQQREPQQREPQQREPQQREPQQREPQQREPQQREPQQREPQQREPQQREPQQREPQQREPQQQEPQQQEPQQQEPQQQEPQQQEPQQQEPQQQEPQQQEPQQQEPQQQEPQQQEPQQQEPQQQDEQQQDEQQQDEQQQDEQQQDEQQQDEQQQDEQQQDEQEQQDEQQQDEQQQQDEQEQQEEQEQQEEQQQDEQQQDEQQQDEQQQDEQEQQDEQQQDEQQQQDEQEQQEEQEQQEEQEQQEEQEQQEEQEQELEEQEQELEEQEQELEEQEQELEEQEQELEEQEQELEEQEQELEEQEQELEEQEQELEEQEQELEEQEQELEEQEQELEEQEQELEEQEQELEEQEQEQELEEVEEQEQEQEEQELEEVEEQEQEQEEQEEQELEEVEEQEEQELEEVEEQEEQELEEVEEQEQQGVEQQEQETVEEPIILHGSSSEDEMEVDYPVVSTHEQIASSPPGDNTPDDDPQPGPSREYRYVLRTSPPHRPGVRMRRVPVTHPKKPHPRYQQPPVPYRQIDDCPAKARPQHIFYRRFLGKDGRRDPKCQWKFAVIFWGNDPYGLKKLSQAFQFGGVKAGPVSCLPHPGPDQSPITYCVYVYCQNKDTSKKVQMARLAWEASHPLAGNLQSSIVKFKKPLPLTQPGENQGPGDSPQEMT
Calb FLC: C. albicans growth modulation with fluconazole; C. albicans CaCi-2 (fluconazole-resistant clinical isolate) + fluconazole, Alamar Blue growth, 48 h; growth inhibition, % (no concentration beside the values); hit rate 0.57% among 300,000; AID 1979;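 active = most replicates above 75%; inconclusive = exactly half above 75%; inactive = most below 75%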;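 note: all wells also contain fluconazole at 8 µg/ml as a sub-toxic cotreatment; 0% = median of DMSO wells and 100% = median of geldanamycin control wells; wells of about 8 µL received 7.5 nL stock; the first replicate is given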
B2AR ag: human beta-2 adrenergic receptor agonism by FAP | Am2.2-beta2AR cells, FAP receptor internalization, flow cytometry; reference of the scale not given here | response, % (test concentration not listed) | hit rate 0.43% among 340,000;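 active = response above a set limit, near 3 SD of response in nonfluorescent compounds, cut at about 42% in these data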;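 note: stock transfer was 100 nL into about 11 µL; a reference agonist was the positive control; negative values mostly stem from fluorescent compounds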
Vif TR-FRET: HIV-1 Vif–A3G interaction blockers – biochemical, TR-FRET, GST-Vif 1-94, biotin-A3G peptide, dose response retest, primary screen (AID 1117319); TR-FRET GST-Vif / biotin-A3G peptide binding; higher % means a stronger effect; test concentration not given here; strong numbers were not always called active; inhibition, %; hits with a dose series show IC50 in µM; hit rate 0.57% among 260,000;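 active = above the screen mean plus three standard deviations and confirmed in dose response; inconclusive = results disagree or hit not tested in dose response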;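 note: Vif residues 1-94 fused to GST binding biotinylated APOBEC3G peptide 110-148; 0% = full assay without inhibitor and 100% = GST in place of GST-Vif; retest series ran down from 100 µM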
HNF4A DNA FP: change in binding of human HNF4 alpha to DNA; AID 1224865; P41235; HNF4a-FITC DNA binding, fluorescence polarization, 1 h; hit rate 0.3% among 360,000; activity change, % at 10 µM; in the data active = activity change above about 30%, passing the limit was not always enough;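 note: controls were the assay level and a saturating level of protein; the project sought stronger binding though the title names inhibitors; some compounds called inactive have numbers as strong as hits; positive values seem to mean higher polarization but the record does not say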
ALR inh: human ALR oxidase inhibition via reduced H2O2; hit rate 3.8% among 290,000; purified ALR, DTT oxidation, H2O2 HRP-luminol luminescence; inhibition, % (test concentration not listed); AID 485317; P55789;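 active = mean and each replicate at 75% or more; inconclusive = only one of the two met; inactive = neither met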;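 note: stock transfer was 7.5 nL into about 7.5 µL; 0% = neutral wells and 100% = wells with inactivated enzyme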
RanGTP-Imp inh: disruptors of Ran-importin-beta complex formation – biochemical, FRET, CFP-Ran, YFP-importin-beta, homogeneous, primary screen. AID 2216. hit rate 1.1% among 300,000. inhibition, % (concentration not given with the values). cell-free CFP-Ran/YFP-importin-beta FRET ratio;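 active = most replicates above 15%; inconclusive = exactly half above 15%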;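 note: 0% = DMSO wells and 100% = Ran loaded with GDP instead of GTP; wells of about 40 µL received 100 nL stock; the first replicate is given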
The depositor's hits bear a star.

How did COc1cc(/C=C/C(=O)NCCc2ccc(S(N)(=O)=O)cc2)ccc1OCC#N do in these assays?
LANA-H2B inh: -4.6; Calb FLC: -2; B2AR ag: 11; Vif TR-FRET: 12%; HNF4A DNA FP: 1.5; ALR inh: -6; RanGTP-Imp inh: inconclusive

What do the screens show for `CC(=O)c1sc(NC(=O)CS(=O)(=O)c2ccccc2)nc1C`?
LANA-H2B inh: -4.1; Calb FLC: -6; B2AR ag: -4; Vif TR-FRET: -11%; HNF4A DNA FP: -3.6; ALR inh: 0; RanGTP-Imp inh: -0.8

What do the screens show for `CCOc1ccc(CN2CCNC(=O)C2CC(=O)NCCN2CCOC2=O)cc1` (stereo not given)?
LANA-H2B inh: -4.4; Calb FLC: -7; B2AR ag: -2; Vif TR-FRET: -3%; HNF4A DNA FP: 0.3; ALR inh: -4; RanGTP-Imp inh: 1.4

Results for Cc1ccc(C2(CC(=O)O)CCOC(C)(C)C2)cc1 (stereo not given) ?
LANA-H2B inh: 1.1; Calb FLC: -10; B2AR ag: -11; Vif TR-FRET: -5%; HNF4A DNA FP: 1.4; ALR inh: -1; RanGTP-Imp inh: 4.4

What do the screens show for `COc1ccc(NC(=S)NCCc2c[nH]c3ccccc23)c(OC)c1`?
LANA-H2B inh: -9.0; Calb FLC: 28; B2AR ag: 3; Vif TR-FRET: 21%; HNF4A DNA FP: 5.2; ALR inh: 3

How did Cc1ccc(CNC(=O)C(=O)Nc2nccs2)cc1 do in these assays?
LANA-H2B inh: 3.8; Calb FLC: -10; B2AR ag: 4; Vif TR-FRET: 3%; HNF4A DNA FP: -1.9; ALR inh: -5; RanGTP-Imp inh: -2.8

Results for CCN(CC)CCOC(=O)c1ccc(NC(=O)CCNC(=O)Cn2ccc3ccccc3c2=O)cc1 ?
LANA-H2B inh: 2.2; Calb FLC: 7; B2AR ag: 1; Vif TR-FRET: 16%; HNF4A DNA FP: -4.6; ALR inh: -6; RanGTP-Imp inh: 1.5

Results for O=S(=O)(NCc1cccnc1)c1ccc(Cl)nc1 ?
LANA-H2B inh: -2.5; Calb FLC: 3; B2AR ag: 6; Vif TR-FRET: 11%; HNF4A DNA FP: -1.1; ALR inh: -1; RanGTP-Imp inh: 9.8

Results for Cc1cccc(CCNS(=O)(=O)c2ccc3c(c2)NC(=O)CO3)c1 ?
Calb FLC: -3; B2AR ag: 3; HNF4A DNA FP: 0.3; ALR inh: -13; RanGTP-Imp inh: -1.4

Results for C=CCN1C(=O)C(CC(=O)Nc2ccccc2)SC1=Nc1ccc(S(N)(=O)=O)cc1 (stereo not given) ?
LANA-H2B inh: -0.2; Calb FLC: 3; B2AR ag: -1; Vif TR-FRET: -1%; HNF4A DNA FP: -2.9; ALR inh: -3; RanGTP-Imp inh: -2.0

Results for COc1ccc(C(C)=O)cc1COC(=O)CCC(=O)N(CC(C)C)c1c(N)n(CC(C)C)c(=O)[nH]c1=O ?
LANA-H2B inh: 1.1; Calb FLC: 8; B2AR ag: -2; Vif TR-FRET: 3%; HNF4A DNA FP: 2.7; ALR inh: -2; RanGTP-Imp inh: 2.8

Results for COc1cc(C(=O)Nc2ccc(C(F)(F)F)cc2)ccc1OCC(=O)N1CCOCC1 ?
B2AR ag: 0; Vif TR-FRET: -3%; HNF4A DNA FP: 0.0

How did Cc1ccc(NC(=O)CCC2CC(C)(C)OC2=O)cc1 (stereo not given) do in these assays?
LANA-H2B inh: -1.2; Calb FLC: 2; B2AR ag: 2; Vif TR-FRET: -6%; HNF4A DNA FP: -3.0; ALR inh: -4; RanGTP-Imp inh: -2.9

How did OCCN(Cc1ccccc1)Cc1cccc(C(F)(F)F)c1 do in these assays?
LANA-H2B inh: 1.4; B2AR ag: -5; Vif TR-FRET: -4%; HNF4A DNA FP: 2.3; ALR inh: -2

What do the screens show for `C=CC[C@@H](CC(=O)N(CCO)Cc1ccccc1)C(=O)NC[C@@H](OC(=O)[C@@H](CC=C)CC(=O)OC(C)(C)C)c1ccccc1`?
LANA-H2B inh: 6.9; B2AR ag: 6; HNF4A DNA FP: 3.2; ALR inh: -10

Of the compounds above, these have fluorine.
Results for COc1cc(C(=O)Nc2ccc(C(F)(F)F)cc2)ccc1OCC(=O)N1CCOCC1 ?
B2AR ag: 0; Vif TR-FRET: -3%; HNF4A DNA FP: 0.0

How did OCCN(Cc1ccccc1)Cc1cccc(C(F)(F)F)c1 do in these assays?
LANA-H2B inh: 1.4; B2AR ag: -5; Vif TR-FRET: -4%; HNF4A DNA FP: 2.3; ALR inh: -2

Other results:
What do the screens show for `CCN(C(=O)CSc1n[nH]c(N)n1)C1CCCCC1`?
LANA-H2B inh: 2.4; B2AR ag: 7; HNF4A DNA FP: -1.8

Results for O=C(CSc1nnnn1-c1ccccc1)NC(=O)Cc1ccccc1 ?
LANA-H2B inh: 2.4; B2AR ag: 0; Vif TR-FRET: -7%; HNF4A DNA FP: -0.6

What do the screens show for `COC(=O)c1ccc(CNC(=O)CCc2c[nH]c3ccccc23)cc1`?
LANA-H2B inh: -3.6; Calb FLC: -17; B2AR ag: 7; Vif TR-FRET: 1%; HNF4A DNA FP: -2.1; ALR inh: 3; RanGTP-Imp inh: 0.1

How did CCOC(=O)c1ccccc1NC(=O)c1ccc2c(=O)n3c(nc2c1)CCCCC3 do in these assays?
LANA-H2B inh: -1.1; Calb FLC: 8; B2AR ag: -7; HNF4A DNA FP: 2.2; ALR inh: -14; RanGTP-Imp inh: -0.2

What do the screens show for `Cc1ccc(OCc2ccccc2Br)c([N+](=O)[O-])n1`?
LANA-H2B inh: -4.2; Calb FLC: 7; B2AR ag: -2; HNF4A DNA FP: 0.6; ALR inh: 0; RanGTP-Imp inh: 4.7

Results for Cc1ccc(C(=O)N2CCN(C3c4cccc5cccc(c45)C3NS(=O)(=O)c3ccccc3)CC2)cc1 (stereo not given) ?
LANA-H2B inh: 2.7; Calb FLC: -7; B2AR ag: 2; Vif TR-FRET: 20%; HNF4A DNA FP: -1.0; ALR inh: 0; RanGTP-Imp inh: -1.4

Results for O=C(NCCN1CCN(c2ccccc2)CC1)Nc1cccc(Br)c1 ?
LANA-H2B inh: 3.2; Calb FLC: -9; B2AR ag: 6; Vif TR-FRET: -2%; HNF4A DNA FP: 4.3; ALR inh: 24; RanGTP-Imp inh: 1.1

Results for COc1ccccc1-c1cc(C(F)(F)F)nc(N2CCN(c3ccc(F)cc3)CC2)n1 ?
LANA-H2B inh: -2.7; Calb FLC: -12; B2AR ag: 1; Vif TR-FRET: 1%; HNF4A DNA FP: -3.4; ALR inh: -6; RanGTP-Imp inh: 0.0

Results for CN(C)CCCNC(=O)C[C@H]1C[C@H](C(=O)N2CCOCC2)[C@@]2(C)c3[nH]c4cc(-c5ccco5)ccc4c3CCN2C1=O ?
B2AR ag: -3; Vif TR-FRET: 6%; HNF4A DNA FP: 2.2

Results for CCOC(=O)c1c(S(=O)(=O)NCC(=O)NCc2ccccc2)c(C)n(C)c1C ?
LANA-H2B inh: 4.7; Calb FLC: 1; B2AR ag: 9; Vif TR-FRET: -2%; HNF4A DNA FP: 3.7; ALR inh: -2; RanGTP-Imp inh: 8.0

What do the screens show for `CCOC(=O)C(CC)/C(C)=N/NC(=O)c1ccccc1[N+](=O)[O-]` (stereo not given)?
LANA-H2B inh: -0.8; Calb FLC: 2; B2AR ag: -7; Vif TR-FRET: 12%; HNF4A DNA FP: 2.0; ALR inh: -2; RanGTP-Imp inh: -0.2

Results for COc1ccc(Nc2nc(C)cc(=O)[nH]2)c(OC)c1 ?
LANA-H2B inh: -3.1; Calb FLC: -9; B2AR ag: 1; Vif TR-FRET: 10%; HNF4A DNA FP: 0.9; ALR inh: 4; RanGTP-Imp inh: 0.1

How did Cc1nn(C(C)C(=O)N2CCCCC2)c(=O)c2c1sc1ccccc12 (stereo not given) do in these assays?
LANA-H2B inh: 5.1; Calb FLC: 3; B2AR ag: -1; Vif TR-FRET: 0%; HNF4A DNA FP: -0.4; ALR inh: -2; RanGTP-Imp inh: -0.9

How did CCc1nnc(NC(=O)CSc2nnc(CNc3cccc(C)c3)n2-c2ccccc2)s1 do in these assays?
LANA-H2B inh: 0.0; Calb FLC: 116*; B2AR ag: 4; Vif TR-FRET: 23%; HNF4A DNA FP: 2.1; RanGTP-Imp inh: 5.1

How did O=C(CCCN1C(=O)/C(=C\c2cccs2)SC1=S)NNC(=O)c1cccnc1 do in these assays?
LANA-H2B inh: -0.8; Calb FLC: 18; B2AR ag: 3; Vif TR-FRET: 21%; HNF4A DNA FP: 12; ALR inh: -7; RanGTP-Imp inh: 9.7

Quoted from the listing (two entries):
Results for COc1ccc(Nc2nc(C)cc(=O)[nH]2)c(OC)c1 ?
LANA-H2B inh: -3.1; Calb FLC: -9; B2AR ag: 1; Vif TR-FRET: 10%; HNF4A DNA FP: 0.9; ALR inh: 4; RanGTP-Imp inh: 0.1

How did Cc1nn(C(C)C(=O)N2CCCCC2)c(=O)c2c1sc1ccccc12 (stereo not given) do in these assays?
LANA-H2B inh: 5.1; Calb FLC: 3; B2AR ag: -1; Vif TR-FRET: 0%; HNF4A DNA FP: -0.4; ALR inh: -2; RanGTP-Imp inh: -0.9

Later entries:
How did Cc1cccc(Oc2ccc(C(=O)NC3CCSC3=O)cn2)c1C (stereo not given) do in these assays?
LANA-H2B inh: 1.5; Calb FLC: -3; B2AR ag: 16; Vif TR-FRET: 6%; HNF4A DNA FP: -0.2; ALR inh: 4; RanGTP-Imp inh: -1.9

Results for O=C(O)CNC(=O)c1ccccc1Br ?
LANA-H2B inh: 0.0; Calb FLC: 2; B2AR ag: 9; Vif TR-FRET: 32%; HNF4A DNA FP: 0.6; ALR inh: 6; RanGTP-Imp inh: inconclusive

How did CCCNC(=O)COC(=O)/C=C/c1ccco1 do in these assays?
LANA-H2B inh: -1.1; Calb FLC: 0; B2AR ag: 0; Vif TR-FRET: 31%; HNF4A DNA FP: 3.4; ALR inh: 19; RanGTP-Imp inh: -2.4

How did Nn1c(SCC(=O)NC2CCS(=O)(=O)C2)nnc1-c1cccs1 (stereo not given) do in these assays?
LANA-H2B inh: 0.4; Calb FLC: -8; B2AR ag: 10; Vif TR-FRET: 6%; HNF4A DNA FP: -0.6; RanGTP-Imp inh: 5.7

What do the screens show for `CCCN(CC(=O)Nc1ccc(F)c(F)c1F)C(=O)c1ccc2c(c1)NC(=O)CS2`?
LANA-H2B inh: 2.0; B2AR ag: 3; HNF4A DNA FP: 4.7; ALR inh: 29

What do the screens show for `COc1ccc(C(=O)CSC2=C(C#N)C3(CCCCC3)C(C#N)=C(N)N2)cc1`?
LANA-H2B inh: -0.9; Calb FLC: 0; B2AR ag: -9; Vif TR-FRET: 6%; HNF4A DNA FP: -1.2; ALR inh: 87*; RanGTP-Imp inh: 1.9

What do the screens show for `CCOc1ccc(S(=O)(=O)NCc2ccccn2)cc1`?
LANA-H2B inh: 5.1; Calb FLC: -1; B2AR ag: -1; Vif TR-FRET: 4%; HNF4A DNA FP: 2.9; ALR inh: -6; RanGTP-Imp inh: 0.9

What do the screens show for `Cc1ccc(-n2c(C)c([N+](=O)[O-])c3ccc(O)cc32)cc1`?
LANA-H2B inh: -6.2; Calb FLC: 41; Vif TR-FRET: 2%; ALR inh: -13; RanGTP-Imp inh: 4.2

What do the screens show for `O=C(CN1CCN(C/C=C/c2ccccc2)CC1)NCc1ccc(Cl)cc1`?
LANA-H2B inh: -0.6; Calb FLC: -1; B2AR ag: -5; Vif TR-FRET: -5%; HNF4A DNA FP: 6.0; ALR inh: -1; RanGTP-Imp inh: -0.1

How did CCc1ccc(N(C(=O)c2ccco2)C(C(=O)NC2CCCC2)c2ccco2)cc1 (stereo not given) do in these assays?
LANA-H2B inh: 0.3; Calb FLC: -6; B2AR ag: 6; Vif TR-FRET: -5%; HNF4A DNA FP: 4.4; ALR inh: -2; RanGTP-Imp inh: -0.6
